Screening results (PubChem)
MLL AF4-AF9 inh: inhibitors of human MLL-AF4/AF9 interaction; AID 651704; AlphaScreen, biotin-AF4 peptide binding to FLAG-AF9; 350,000 compounds, 0.47% hits; inhibition, % at 10 µM; P42568;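 active means every replicate reaching a set inhibition limit, whatever the replicate mean, cut at about 25% in these data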;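 further: 0% = plate neutral control median and 100% = total signal loss; the record names both 10 and 1 µM as test concentration; the first replicate is given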
Target sequence (P42568 whole entry, looked up): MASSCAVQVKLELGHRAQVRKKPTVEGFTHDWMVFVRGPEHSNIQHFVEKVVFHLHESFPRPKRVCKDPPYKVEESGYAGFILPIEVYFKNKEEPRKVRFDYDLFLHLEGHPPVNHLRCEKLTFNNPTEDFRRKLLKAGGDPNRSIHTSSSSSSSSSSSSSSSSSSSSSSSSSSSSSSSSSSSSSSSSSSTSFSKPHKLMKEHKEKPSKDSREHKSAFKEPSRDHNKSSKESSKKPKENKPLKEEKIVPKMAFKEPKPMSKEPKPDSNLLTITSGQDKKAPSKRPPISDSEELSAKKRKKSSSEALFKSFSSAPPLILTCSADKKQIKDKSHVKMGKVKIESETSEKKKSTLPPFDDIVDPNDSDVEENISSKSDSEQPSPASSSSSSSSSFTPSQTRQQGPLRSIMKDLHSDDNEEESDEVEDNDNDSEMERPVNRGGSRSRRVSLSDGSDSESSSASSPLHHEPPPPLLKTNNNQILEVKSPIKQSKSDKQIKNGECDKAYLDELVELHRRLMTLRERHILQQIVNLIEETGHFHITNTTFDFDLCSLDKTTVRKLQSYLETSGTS
FGF22 binding: shifts melting point of recombinant human FGF22; Q9HCT0; recombinant FGF22 thermal shift, SYPRO orange fluorescence; percent of sucrose octasulfate shift, DMSO zero; 340,000 compounds, 1.5% hits; calls only at 9.99 µM;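 active means melting point raised past a set limit in the mean and every replicate; three in four hits are not shown here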
Target sequence (Q9HCT0 whole entry, looked up): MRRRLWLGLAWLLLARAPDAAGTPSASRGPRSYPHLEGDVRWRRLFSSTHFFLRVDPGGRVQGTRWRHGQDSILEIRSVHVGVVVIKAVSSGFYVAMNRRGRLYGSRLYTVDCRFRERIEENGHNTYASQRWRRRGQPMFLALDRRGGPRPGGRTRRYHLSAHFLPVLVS
Numbers without * were called inactive; i = inactive; + = active, no number. An excerpt. The share of hits here may be higher or lower than overall.

compound,MLL AF4-AF9 inh,FGF22 binding
CC(C)(C)OC(=O)N1CCC(NC(=O)c2[nH]c(C(F)(F)F)nc2-c2ccccc2)CC1,-5.2,i
C[C@H]1CN([C@@H](C)CO)C(=O)c2cc(N(C)C)ccc2O[C@H]1CN(C)C,-2.5,i
C=CCNC(=O)[C@@H]1[C@H]2C(=O)O[C@H](c3ccccc3)[C@H](c3ccccc3)N2[C@H](c2ccccc2OCCO)[C@@]12C(=O)Nc1ccc(C#CCNC(N)=O)cc12,-0.6,i
COCCCN1C(=O)C(CC(=O)NCc2cccs2)CC(C(=O)N2CCCCCC2)=C1C (configuration not stated),-2.6,i
CCc1nc2ccc(C(=O)N3CCN(S(=O)(=O)CC)CC3)cn2c1N(C)C(=O)C1CCCCC1,1.0,i
COCCOC(=O)N1C(=O)[C@@]2(c3cc(C#Cc4ccc(OC)cc4)ccc31)[C@H](C(=O)N1CCN(c3ncccn3)CC1)[C@H]1C(=O)O[C@H](c3ccccc3)[C@H](c3ccccc3)N1[C@@H]2c1ccccc1OCCO,-0.7,i
Cc1cccc(S(=O)(=O)N2CCCCN3[C@H](CO)[C@@H](c4ccc(-c5ccccc5)cc4)[C@H]3C2)c1,6.6,i
O=C(NN=Cc1ccc2c(c1)OCO2)c1ccccc1,0.6,i
Cc1ccc(S(=O)(=O)Nc2ccccn2)c(C)c1,-2.4,i
CCO[C@@H]1OC(C(=O)N2CCCC2)=C[C@H](C2CCCCC2)[C@H]1CCCO,-11.0,i

Single values from the list.
MLL AF4-AF9 inh, `COCCOC(=O)N1C(=O)[C@@]2(c3cc(C#Cc4ccc(OC)cc4)ccc31)[C@H](C(=O)N1CCN(c3ncccn3)CC1)[C@H]1C(=O)O[C@H](c3ccccc3)[C@H](c3ccccc3)N1[C@@H]2c1ccccc1OCCO` is entered as -0.7
MLL AF4-AF9 inh, `CCO[C@@H]1OC(C(=O)N2CCCC2)=C[C@H](C2CCCCC2)[C@H]1CCCO` is entered as -11.0

Next structures follow:
compound,MLL AF4-AF9 inh,FGF22 binding
O=C(CN1CCN(S(=O)(=O)c2ccccc2F)CC1)NCC1(N2CCOCC2)CCCCC1,-5.7,i
COCCNC(=O)c1cc2c(c(-c3cccc(-c4cccc(F)c4)c3)n1)[C@@H](CCO)N(S(=O)C(C)(C)C)C2 (some centres not stated),4.5,i
CCCCCCCCN1C(=O)[C@H](CC(=O)N2CCN(C(=O)OCC)CC2)C[C@@]2(C(=O)OCC)CCCC=C12,1.7,i
C#Cc1ccc([C@@H]2C=C(C(=O)N3CCCCCCC3)O[C@H](OCC)[C@H]2CCCO)cc1,-0.3,i
Cc1cc(Cl)ccc1C(O)c1ncc(-c2ccccc2Cl)[nH]1 (configuration not stated),2.5,i
COC1C(O)CCC2(CO2)C1C1(C)OC1CC=C(C)C (configuration not stated),-2.4,i
CO[C@H]1CN(C)C(=O)c2ccc(NC(=O)c3ccc(Oc4ccccc4)cc3)cc2OC[C@H](C)NC[C@H]1C,11.9,i
O=C(c1ccc(CS(=O)c2ccccc2Cl)o1)N1CCN(C2CCCCC2)CC1 (configuration not stated),-0.3,i
C#CCNC(=O)C[C@@H]1C[C@@]2(C(=O)OCC)CCC=C2N(Cc2ccc(Cl)cc2Cl)C1=O,-0.9,i
CC(C)Cc1nnc(NC(=O)CCNC(=O)c2ccccc2Cl)s1,-0.5,i
Clc1ccc(C=NN2CCCCCC2)c(Cl)c1,3.9,i
Cc1cccc(-c2nc(NCCN(C)C)c3ccccc3n2)c1,5.0,i
Cc1ccc(F)cc1S(=O)(=O)N[C@@H]1CCN(Cc2cccc3[nH]ccc23)C1,8.9,i
C=CC[C@@]1(C(=O)N2CCCCC2)N=C(c2ccc(OCCCO)cc2)O[C@@H]1c1ccccc1,2.0,i
CNC[C@H]1Oc2ccc(NC(=O)Nc3ccc(OC)cc3)cc2C(=O)N([C@H](C)CO)C[C@@H]1C,-0.9,+
COc1ccc([Si](C)(C)[C@H]2[C@H](CCO)O[C@@]3(C(=O)N4c5c(cc(OC)cc53)C(C)=CC4(C)C)[C@@H]2C)cc1,8.3,i
CC1(C)C[C@@H](O)[C@]2(C)CC[C@]3(C)C(=CCC4[C@@]5(C)CC[C@H](O)[C@](C)(CO)C5CC[C@]43C)[C@@H]2C1 (some centres not stated),-2.2,i
COc1ccc(CCNC(=O)[C@@H]2c3ccccc3C(=O)N(CC34CC5CC(CC(C5)C3)C4)[C@H]2c2ccc(CO)cc2)cc1,1.1,i
COCCCNC(=O)[C@]1(Cc2ccccc2N=[N+]=[N-])N=C(c2ccc(OCCCO)cc2)O[C@@H]1c1ccccc1N=[N+]=[N-],9.0,i
OCc1ccc(-c2cc[n+](Cc3cc4c(cc3Br)OCO4)cc2)cc1,-1.7,i

FGF22 binding, hit marks shown above.
compound,MLL AF4-AF9 inh,FGF22 binding
CNC[C@H]1Oc2ccc(NC(=O)Nc3ccc(OC)cc3)cc2C(=O)N([C@H](C)CO)C[C@@H]1C,-0.9,+

The listing continues.
compound,MLL AF4-AF9 inh,FGF22 binding
CC(C)(C)[C@@H]1C=C(C(=O)N2CCCCCCC2)O[C@H](OCc2ccc(CO)cc2)C1,-2.4,i
O=C(Nc1nnc(SCc2ccc(F)cc2)s1)C1=COCCO1,2.4,i
N#C[C@H]1[C@@H](c2ccc(C#CC3CCCCC3)cc2)[C@@H](CO)N1C(=O)Cc1ccccn1,1.2,i
COc1ccc(C#Cc2ccc3c(c2)[C@]2(C(=O)N3)[C@H](C(=O)N3CCc4cc(OC)c(OC)cc4C3)[C@H]3C(=O)O[C@H](c4ccccc4)[C@H](c4ccccc4)N3[C@@H]2c2ccc(O)cc2)cc1,0.0,i
O=C(C[C@@H]1CC[C@@H]2NC[C@H](O)COC[C@H]2O1)Nc1nccs1,0.1,i
O=S(=O)(c1ccc(F)cc1)N1CCCCN2[C@@H](CO)[C@@H](c3ccc(C#CC4CCCC4)cc3)[C@@H]2C1,1.9,i
O=C(C[C@H]1CC[C@@H]2[C@H](COC[C@@H](O)CN2Cc2ccc(Oc3ccccc3)cc2)O1)N1CCc2ccccc2C1,2.3,i
COc1ccc(NC(=O)c2cc(C3CCCCN3C(=O)c3ccc(Cl)cc3)on2)c(C)c1 (configuration not stated),3.0,i
COc1ccc(NC(=O)N2CCCCN3[C@H](C2)[C@@H](c2ccc(C4=CCCC4)cc2)[C@@H]3CO)cc1,-3.4,i
COc1cc2c(cc1OC)CN1CCc3cc(OC)c(OC)cc3C1C2 (configuration not stated),0.9,i
N#Cc1ccsc1NC(=O)c1ccc2ncsc2c1,-1.5,i
COC(=O)CCCCCCC(=O)NOCc1ccccc1,-2.3,i
COc1ccccc1CN1CC(C(=O)NCCCCc2ccccn2)CCC1=O (configuration not stated),0.8,i
O=C(C1CCCC1)N1CCCCN2[C@H](C1)[C@H](c1ccc(-c3cccc(F)c3)cc1)[C@@H]2CO,-1.5,i
COc1cccc(-c2cccc(NC(=O)C3CCN(CCCn4cccn4)CC3)c2)c1,3.8,i
C[C@@H]1CN([C@H](C)CO)C(=O)c2cc(NC(=O)Nc3ccccc3)ccc2O[C@@H](C)CCCCO[C@@H]1CN(C)C(=O)C1CCCCC1,1.8,i
COc1ccccc1-c1ccc2c(c1)[C@@H]1[C@@H](CCN1C(=O)C1CCCCC1)[C@@H](CO)N2,6.4,i
O=C1c2ccccc2C(=O)N1C[C@@H]1CCCN(Cc2ccc(OCCO)cc2)C1,0.6,i
O=C(C[C@@H]1C=C[C@@H](NC(=O)Nc2ccccc2)[C@@H](CO)O1)NCc1cccc(F)c1,-12.7,i
O=C(C1CC1)N1CCCCN2[C@H](C1)[C@@H](c1ccc(C#CC3(O)CCCC3)cc1)[C@@H]2CO,-6.6,i
COc1ccc(S(=O)(=O)N2CCCCN3[C@H](CO)[C@H](c4ccc(C5=CCCCC5)cc4)[C@H]3C2)cc1,1.4,i
O=C(Nc1ccc2c3c(cccc13)CC2)c1ccccc1,-7.4,i
CC1CCCCC1NC(=O)COc1ncnc2sccc12 (configuration not stated),-0.8,i
COc1ncnc2c1ncn2CCCNCc1ccccn1,-3.2,i
Cc1ccc(NC(=O)C(C)Sc2nnc3n2CCCCC3)cc1S(=O)(=O)N1CCOCC1 (configuration not stated),0.1,i
COC(=O)[C@]1(CCS(=O)(=O)c2ccccc2)N=C(c2ccc(OCCCO)cc2)O[C@@H]1c1ccccc1CN=[N+]=[N-],3.5,i
O=C(C1CC1)N1CCCCN2[C@H](CO)[C@H](c3ccc(C#CC4CC4)cc3)[C@H]2C1,-2.1,i
C#CCNC(=O)C1=C[C@H](C2CC2)[C@@H](CCCO)[C@H](OCC)O1,-0.1,i
O=C(Nc1ccc(F)cc1)N[C@@H]1C[C@@H]2O[C@H](CO)CC[C@@H]2O[C@@H]1CCc1ccc(-c2ccccc2)cc1,-3.5,i
CC(=NNC1=NCCN1)c1cn(C2=NCCN2)nc1C,-0.3,i

Compounds above that have two or more sulfur atoms:
compound,MLL AF4-AF9 inh,FGF22 binding
O=C(Nc1nnc(SCc2ccc(F)cc2)s1)C1=COCCO1,2.4,i
N#Cc1ccsc1NC(=O)c1ccc2ncsc2c1,-1.5,i
Cc1ccc(NC(=O)C(C)Sc2nnc3n2CCCCC3)cc1S(=O)(=O)N1CCOCC1 (configuration not stated),0.1,i

Continuation.
compound,MLL AF4-AF9 inh,FGF22 binding
C[C@H]1CN([C@@H](C)CO)C(=O)Cc2cc(NC(=O)Nc3ccc4c(c3)OCO4)ccc2O[C@H]1CN(C)C(=O)Nc1ccc2c(c1)OCO2,1.5,i
Cc1ccc(-c2ccc(CN3C(C(C)C)C(=O)N(Cc4cn(CCC5OCCO5)nn4)CCS3(=O)=O)cc2)cc1 (configuration not stated),-0.4,i
CC1=C(C(=O)N(C)C)CC(CC(=O)NCCN2CCOCC2)C(=O)N1Cc1ccccc1 (configuration not stated),-3.3,i
OCC1(CO)CC2(C1)CC(CO)(CO)C2,1.3,i
COCCOC(=O)N1C(=O)[C@@]2(c3cc(C#CC4=CCCCC4)ccc31)[C@H](c1ccc(O)cc1)N1[C@H](c3ccccc3)[C@H](c3ccccc3)OC(=O)[C@H]1[C@@H]2C(N)=O,-2.1,i
O=C/C=C/c1ccc2c(c1)OCO2,-2.9,i
O=S(=O)(c1ccccc1F)N1CCCCN2[C@H](CO)[C@@H](c3ccc(-c4ccccc4)cc3)[C@@H]2C1,-3.5,i
C=CCN(Cc1ccccc1)C(=O)[C@@H]1N(C(C)(C)C)C(=O)[C@H]2[C@H](C(=O)O)[C@@H]3C=C[C@]12O3,-1.7,i
C#CCOc1ccccc1C(=O)NNc1ccc([N+](=O)[O-])cc1[N+](=O)[O-],0.1,i
C[C@H]1CN([C@@H](C)CO)C(=O)Cc2cc(N(C)C)ccc2O[C@@H]1CN(C)Cc1ccccc1,1.0,i
CCCCN(C(=O)c1cc(S(=O)(=O)N2CCOCC2)ccc1N1CCOCC1)c1ccccc1,4.6,i
COc1ccccc1NC(=O)COC(=O)COc1ccccc1F,-6.7,i
COc1ccc(CN(C)C[C@H]2Oc3ccc(NC(=O)Cn4cnnn4)cc3CC(=O)N([C@H](C)CO)C[C@H]2C)cc1,-0.6,i
COC(=O)C[C@@H]1CC[C@@H]2[C@@H](COc3ccc(NS(=O)(=O)c4ccc(F)cc4)cc3C(=O)N2C)O1,0.3,i
COc1ccc(C#Cc2ccc3c(c2)[C@]2(C(=O)N3)[C@H](C(=O)N3CCN(c4ncccn4)CC3)[C@H]3C(=O)O[C@H](c4ccccc4)[C@H](c4ccccc4)N3[C@@H]2c2ccc(O)cc2)cc1,0.2,i
CC(C)CNc1ncnc2c1ncn2[C@H]1CN(Cc2ccncc2)C[C@@H](CO)O1,-2.0,i
O=C(NCc1ccc(F)cc1)[C@H]1C[C@H]2C(=O)NCC(=O)N2[C@H]1c1ccc(O)cc1,0.6,i
COCc1cccc(-c2csc(C(O)c3ccc(F)cc3)n2)c1 (configuration not stated),-3.4,i
CC1CCN(C(=O)CCC(=O)Nc2ccc([N+](=O)[O-])cc2)CC1,-0.6,i
Cc1cc(N=O)c(C)cc1O,-1.9,i
O=C1[C@@H]2[C@H](C(=O)N1c1ccccc1)[C@@]13COC[C@H](c4ccccc4)N1C(=O)[C@]2(C(=O)NCc1ccccc1)O3,1.1,i
COC(=O)[C@]12CCCCC=C1N(CCC1=CCCCC1)C(=O)[C@H](CC(=O)N1CCSCC1)C2,1.3,i
COc1ccc([Si](C)(C)[C@@H]2[C@@H](CCO)O[C@]3(C(=O)N(Cc4ccccc4)c4ccc(N5CCC5=O)cc43)[C@H]2C)cc1,-8.9,i
OCCSCC(O)CC(O)c1ccccc1 (configuration not stated),-2.5,i
Cc1ccc(NCC(=O)Nc2ccc(F)c(Cl)c2)cc1S(=O)(=O)N1CCOCC1,3.7,i
COCCOC(=O)N1C(=O)[C@@]2(c3cc(C#CCNC(N)=O)ccc31)[C@H](c1ccccc1OCCO)N1[C@H](c3ccccc3)[C@H](c3ccccc3)OC(=O)[C@H]1[C@@H]2C(N)=O,-13.2,i
O=C(C1CC1)N1CCCCN2[C@H](CO)[C@H](c3ccc(-c4ccncc4)cc3)[C@@H]2C1,-5.1,i
O=C1C=CC2=C3c4cc(O)c(O)cc4CC3(O)COC2=C1O (configuration not stated),2.2,i
Cc1ccccc1S(=O)(=O)N1CCCCN2[C@H](CO)[C@H](c3ccc(-c4ccccc4)cc3)[C@@H]2C1,-5.4,i
O=C(NCc1ccc(F)cc1)C(=O)NCC1OCCN1S(=O)(=O)c1cc(F)ccc1F (configuration not stated),0.1,i
